WNV protease inh – blocks West Nile virus NS2B-NS3 protease activity. P06935. WNV NS2B-NS3 protease, fluorogenic substrate Ex360/Em465; stronger effect = lower value. z-score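 (tested at a level between 10 and 100 µM)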. 65,000 compounds, 0.18% hits. AID 577;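 active = z-score at -3 or under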;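 note: score is relative to mean and spread of the compound wells of a plate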
Target sequence (P06935 1371-1501 limits assumed): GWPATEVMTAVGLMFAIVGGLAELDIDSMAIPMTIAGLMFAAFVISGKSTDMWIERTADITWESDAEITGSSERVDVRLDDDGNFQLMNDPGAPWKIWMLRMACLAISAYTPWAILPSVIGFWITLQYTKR
Target sequence (P06935 1502-1679 limits assumed): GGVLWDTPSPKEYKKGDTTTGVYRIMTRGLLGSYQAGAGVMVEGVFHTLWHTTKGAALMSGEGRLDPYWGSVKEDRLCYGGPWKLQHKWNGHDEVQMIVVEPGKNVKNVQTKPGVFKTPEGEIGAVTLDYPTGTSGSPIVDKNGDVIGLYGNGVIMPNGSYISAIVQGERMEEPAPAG
Hsc70 – Hsc70 inhibitors, probe displacement, primary screen, biochemical, fluorescence polarization (AID 568); Hsc70 fluorescence polarization, probe displacement; higher % means a stronger effect; strong numbers were not always called active; displacement, % at 20 µM; hits with a dose series show IC50 in µM; 83,000 tested, under 10 active;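 active = displacement above 50% without optical interference and an IC50 on retest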;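 note: ATPase domain with a fluorescein-tagged ATP probe; 0% = vehicle and 100% = excess ADP; read after one hour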
MT1-MMP reporter – inhibitors of MT1-MMP promoter transcription, cell-based, luciferase reporter, luminescence (AID 618) | 87,000 compounds, 0.62% hits | MT1-MMP promoter luciferase reporter cells, luminescence | calls from a first round at 10 µM; hits with a dose series show EC50 in µM;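 active = over half of the reporter light lost at 10 µM or EC50 under 50 µM; inactive = the rest and hits that failed the dose series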;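 note: actives suppress MT1-MMP promoter-driven transcription so potencies describe inhibitors; HT1080 fibrosarcoma cells; overnight exposure; toxic or luciferase-blocking compounds were not removed from the actives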
The depositor's hits bear a star; i = inactive; . = not tested or not shown.

Sample of the layout (4 entries):
SMILES	WNV protease inh	Hsc70	MT1-MMP reporter
CC(=O)c1c(C)[nH]c(C(=O)CSc2nnc(-c3ccco3)n2Cc2ccccc2)c1C	-0.24	0.2%	i
CC(NC(=O)c1ccc(N(C)C)cc1)C(c1cccs1)N1CCN(C)CC1 (stereo unspecified)	0.25	-3.3%	i
COc1cc(C#N)ccc1OCC(=O)c1ccc2c(c1)OCCO2	-0.2	-1.9%	i
CCCC(CCC)C(=O)NCCN1CCOCC1	-0.2	-0.4%	i

Main list, repeating the preview:
SMILES	WNV protease inh	Hsc70	MT1-MMP reporter
CC(=O)c1c(C)[nH]c(C(=O)CSc2nnc(-c3ccco3)n2Cc2ccccc2)c1C	-0.24	0.2%	i
CC(NC(=O)c1ccc(N(C)C)cc1)C(c1cccs1)N1CCN(C)CC1 (stereo unspecified)	0.25	-3.3%	i
COc1cc(C#N)ccc1OCC(=O)c1ccc2c(c1)OCCO2	-0.2	-1.9%	i
CCCC(CCC)C(=O)NCCN1CCOCC1	-0.2	-0.4%	i
FC(F)(F)c1nnc2ccc(-n3ccnc3)nn12	-0.4	-2.2%	i
O=C(NCc1ccccc1Cl)C1CCN(S(=O)(=O)N2CCCCCC2)CC1	-0.1	0.3%	i
CC(C)c1nnc(SCC(=O)NCCC2=CCCCC2)n1N	.	3.7%	i
CN1CCc2c(c3c(n2C)CCN(C)[C@@H]3c2cccnc2)[C@H]1c1cccnc1	-0.71	0.5%	i
Clc1cc(Br)ccc1OCCOCCN1CCOCC1	2.4	5.0%	i
COc1ccccc1N1CCN(C(=O)c2cc3sccc3n2C)CC1	.	-3.2%	i
CCOc1ccc(NC(=O)NCCCN2CCCC2)cc1	.	-1.3%	i
O=C(CSc1nnc(-c2ccco2)n1-c1ccccc1)N1CCc2ccccc21	1.4	-3.3%	i
CN(C)CCN1C(=O)c2oc3ccccc3c(=O)c2C1c1ccccc1 (stereo unspecified)	-0.49	-0.1%	i
O=c1cc(O)n(-c2ccc(Cl)cc2)c(=S)[nH]1	.	7.3%	i
CC(=O)Nc1c(C(=O)c2ccccc2)oc2ccccc12	-1.2	1.2%	i
NC(=O)NC(=O)COC(=O)c1ccccc1Oc1ccccc1	-0.56	-1.0%	i
COc1ccc(Cl)cc1C(=O)NCC(c1ccco1)N1CCCC1 (stereo unspecified)	-0.65	-6.8%	i
C=CCn1cc(C(=O)NCCCOC)c(=O)c2cc(S(=O)(=O)N(CC)CC)ccc21	0.16	8.0%	i
C=CCn1c(=S)[nH]c2ccc(Br)cc2c1=O	-0.91	2.1%	i
Cc1ccc(C(=O)NCCCN2CCOCC2)o1	.	-2.3%	i

Given field by field: part of the list above
CC(C)c1nnc(SCC(=O)NCCC2=CCCCC2)n1N
  WNV protease inh: .
  Hsc70: 3.7%
  MT1-MMP reporter: i
NC(=O)NC(=O)COC(=O)c1ccccc1Oc1ccccc1
  WNV protease inh: -0.56
  Hsc70: -1.0%
  MT1-MMP reporter: i
CCOc1ccc(NC(=O)NCCCN2CCCC2)cc1
  WNV protease inh: .
  Hsc70: -1.3%
  MT1-MMP reporter: i

Going on with the list.
SMILES	WNV protease inh	Hsc70	MT1-MMP reporter
CCOC(=O)C1C2C=CC3(CN(Cc4ccco4)C(=O)C13)O2 (stereo unspecified)	0.84	0.2%	i
CC(=O)c1c(C)[nH]c(C(=O)Nc2c(C)n(C)n(-c3ccccc3)c2=O)c1C	-0.63	2.2%	i
Cc1nnc(NCCO)c2ccccc12	.	-0.4%	i
O=S(=O)(c1cccc(-c2csc(-c3cccnc3)n2)c1)N1CCCCC1	0.6	-1.9%	i
COc1ccc(OC)c(C2C(C(C)=O)=C(O)C(=O)N2c2ccc(F)cc2)c1 (stereo unspecified)	0.59	4.1%	i
CCOc1ccc2cc(S(=O)(=O)N3CCOCC3)ccc2c1	1.9	7.4%	i
CCn1nnc(-c2ccccc2NC(=O)c2cc(OC)c(OC)c(OC)c2)n1	-0.75	-0.6%	i
O=C(COC(=O)c1cnccn1)c1ccc(Br)cc1	-0.23	3.3%	i
Cc1ccc2[nH]c(C)c(CN(C)C3CCN(C)CC3)c(=O)c2c1	1.2	1.2%	i
O=C(Nc1ccc2c(c1)OCCO2)c1ccc(Cl)c(S(=O)(=O)N2CCOCC2)c1	-0.43	-1.9%	i
CCN(CC)S(=O)(=O)c1ccc(C(=O)NCCCN=C2NS(=O)(=O)c3ccccc32)cc1	.	-1.7%	i
COC(=O)NC1CSCC1OC(=O)c1ccc(Br)cc1 (stereo unspecified)	0.62	2.0%	i
CC(O)(C#CCN1CCCC1)c1ccccc1 (stereo unspecified)	0.32	-0.3%	i
CCN1CCN(C(=O)CN(C)S(=O)(=O)c2ccc(Cl)cc2)CC1	.	10%	i
Cc1ccc(CNc2ccc3c(c2)OCO3)cc1	1.4	7.8%	i
Cc1ccc(Cn2ccc(-c3cnc(-c4ccccc4)s3)n2)cc1	.	5.9%	i
O=C(CSc1ccc2nnc(-c3ccc(Cl)cc3)n2n1)N1CCN(c2ccccc2)CC1	2.6	0.4%	i
COc1ccc(C2/C(=C(/O)c3ccc(Cl)cc3)C(=O)C(=O)N2CCN2CCOCC2)c(OC)c1 (stereo unspecified)	-0.53	6.1%	i
Cn1c(=O)cc(SCC(=O)N2CCN(C3CCCCC3)CC2)c2ccccc21	-0.59	2.2%	i
COC(=O)c1cc(=O)[nH]c(SCc2cccc(C)c2)n1	0.7	0.7%	i

Already shown: 4 of the compounds above.
SMILES	WNV protease inh	Hsc70	MT1-MMP reporter
O=C(CSc1ccc2nnc(-c3ccc(Cl)cc3)n2n1)N1CCN(c2ccccc2)CC1	2.6	0.4%	i
COc1ccc(C2/C(=C(/O)c3ccc(Cl)cc3)C(=O)C(=O)N2CCN2CCOCC2)c(OC)c1 (stereo unspecified)	-0.53	6.1%	i
Cn1c(=O)cc(SCC(=O)N2CCN(C3CCCCC3)CC2)c2ccccc21	-0.59	2.2%	i
COC(=O)c1cc(=O)[nH]c(SCc2cccc(C)c2)n1	0.7	0.7%	i

Going on with the list.
SMILES	WNV protease inh	Hsc70	MT1-MMP reporter
O=C(C(Cc1ccccc1)n1cccc1)N1CCc2ccccc21 (stereo unspecified)	0.79	5.2%	i
N#CC1=C(N)N2C(=C(C#N)C1c1ccccc1)Sc1ccccc12 (stereo unspecified)	0.71	34%	i
CC(=O)Nc1cc(NC(C)=O)cc(C(=O)NC(C)(C)C)c1	0.88	0.0%	i
O=C(Nc1cccc(F)c1)c1ccc(S(=O)(=O)N2CCOCC2)cc1	-0.24	6.6%	i
CC(C)(C)c1cc(C(=O)NCc2cccnc2)ccn1	-0.2	-1.3%	i
CCOC(=O)c1cccc(C(=O)Oc2ccccc2)n1	.	-1.1%	i
CCCCCCSc1cc(C)nc2ncnn12	-0.09	-4.1%	i
COC(=O)C(O)(CC(=O)Nc1ccccc1OC)C(F)(F)F (stereo unspecified)	.	-1.8%	i
COc1cc2c(cc1OC)-c1nncn1C(C)(C)C2	0.76	0.9%	i
Cc1cccc(OCC(=O)NCC(=O)n2nc(C)cc2C)c1	-0.24	0.2%	i
CC(=O)C1=C(O)C(=O)N(c2cccc(C(=O)O)c2)C1c1ccccc1F (stereo unspecified)	-0.48	3.9%	i
CCN1CCN(Cc2ccc(OC)c(OCc3ccccc3)c2)CC1	0.6	5.4%	i
COc1ccc(NC(=O)N2CCC(O)(c3cccnc3)CC2)c(OC)c1	-0.34	1.7%	i
O=C(O)CCC(=O)N(Cc1cccs1)Cc1cccs1	0.39	4.0%	i
Cc1ccc(C(=O)N2CCN(C)CC2)cc1S(=O)(=O)N1CCCCC1	-0.18	5.8%	i
Cc1ccc2nc(-c3ccccc3Cl)cc(C(=O)Nc3cc(C)on3)c2c1	2	7.8%	i
CCOC(=O)C1=C(CSc2nc(-c3ccccc3)ccc2C#N)OC(N)=C(C#N)C1c1ccc(OC)cc1 (stereo unspecified)	.	-13%	i
CCN(CCCNC(=O)C1CCN(S(=O)(=O)c2cccc3nonc23)CC1)Cc1ccccc1	-0.91	2.6%	i
O=C(O)C(Oc1ccc2c3c(c(=O)oc2c1)CCC3)c1ccccc1 (stereo unspecified)	0.27	6.1%	i
O=c1cc(N2CCCC2)[nH]c(=O)n1-c1ccc(Cl)cc1	0.24	-0.3%	i
C=CCN=C(NC#N)SCC(=O)NC(C)(C)C	0.5	2.4%	i
Cc1cc(C)cc(N(CC(=O)NC2CCC(C)CC2)S(=O)(=O)c2c(C)noc2C)c1 (stereo unspecified)	0.11	4.0%	i
O=C(Nc1ccncc1)c1cccs1	-0.34	-3.5%	i
CCCC1=[N+](CC)CCn2c(C)ccc21	-0.81	-4.3%	i
Cc1nn(-c2ccccc2)c2c1C(c1cccs1)C(C#N)=C(N)O2 (stereo unspecified)	.	5.1%	i
Cn1c(SCC(=O)CC(=O)Nc2ccccc2)nnc1-c1ccc(O)cc1	.	2.3%	i
CCOC(=O)Cn1c(=O)cnc2ccccc21	.	2.3%	i
COc1ccc(CN2CC(C(=O)NCCCN3CCCCCC3)CC2=O)cc1 (stereo unspecified)	-0.91	-0.4%	i
CCn1c(N)c(C(N)=O)sc1=S	-0.98	4.2%	i
COc1ccc(N2CCN(/C(=N\S(=O)(=O)c3ccc(C)cc3)Nc3nc(C)cc(C)n3)CC2)cc1	.	-2.3%	i
CCOC(=O)c1[nH]c2ccccc2c1NC(C)=O	0.02	2.4%	i
O=C(CSC1=NCCS1)N1CCN(c2ccccc2)CC1	.	4.0%	i
O=C1c2ccccc2C(=O)N1CCCc1nc(-c2ccc(Cl)cc2)no1	-0.58	3.1%	i
Cc1ccc2nc(C)c(C)nc2c1N	-0.11	-1.6%	i
COc1ccccc1N1CCN(C(=O)c2cc(-c3cccs3)on2)CC1	-1.2	-3.0%	i
CSc1oc(-c2ccc(F)cc2)nc1S(=O)(=O)c1ccccc1	.	-4.9%	i
CC(C)CC(c1nnnn1Cc1ccccc1)N1CCC(C(N)=O)CC1 (stereo unspecified)	.	-0.8%	i
COCCNC(=O)COc1ccccc1Cl	2.2	-4.9%	i
CCc1ccccc1NC(=O)COC(=O)C1CC(=O)N(c2ccc(F)cc2)C1 (stereo unspecified)	1.8	-1.8%	i
CCOC(=O)C1=C(c2ccccc2)N2CCS(=O)(=O)N=C2S1	0.17	-0.7%	i
N#CC(C(=O)NC1CCCCC1)c1nc2ccccc2nc1N1CCN(c2ccc(F)cc2)CC1 (stereo unspecified)	1.1	37%	i
COc1ccc(C)cc1-n1nnnc1SCc1cn2ccsc2n1	-0.54	6.1%	i
Cc1n[nH]c(C)c1Cc1ccc(C(=O)O)cc1	-0.07	-0.7%	i
Cn1cnnc1SCC(=O)OCN1C(=O)c2ccccc2C1=O	-0.04	3.4%	i
Cc1ccc(NC(=O)CSc2nc(O)cc(=O)n2C)cc1	.	-2.2%	i
O=C(CSC1=NC(=O)C(Cc2ccccc2)C(=O)N1)Nc1ncccn1 (stereo unspecified)	-0.28	1.4%	i
COc1ccccc1N1CCN(S(=O)(=O)CC23CCC(CC2=O)C3(C)C)CC1 (stereo unspecified)	-0.23	7.7%	i
CC(C)(C)C(=O)CSc1nc2ncc(Br)cc2[nH]1	0.91	-12%	i
COc1ccccc1CNc1nc2nc(C)c(Cl)c(=O)n2[nH]1	-0.14	-2.7%	i
Cc1nnc(SCC(=O)N2CCc3ccccc32)s1	-0.15	-4.1%	i
COc1ccc2cc(C(c3nnnn3C3CCCC3)N3CCCCCC3)c3nnnn3c2c1 (stereo unspecified)	.	-1.5%	i
O=C(CN1CCN(c2ccccc2)CC1)Nc1ccccc1C(F)(F)F	1.3	2.3%	i
Cc1cc(C)nc(N(C#N)CN2C(=O)c3ccccc3S2(=O)=O)n1	0.27	2.7%	i
O=C(Nc1ccccn1)c1c(O)c2cccc3c2n(c1=O)CCC3	-0.71	-1.3%	i
O=C(O)C1CCNCC1	-1.2	-3.8%	i
Cc1ncoc1C(=O)Nc1cccc(Cl)c1	-0.42	4.3%	i
CCN1C(=O)c2cccc3c(S(=O)(=O)Nc4ccccc4)ccc1c23	.	2.1%	i
COC(=O)c1ccc(CSc2ccccc2C)o1	-0.92	-4.0%	i
CNCC(O)COc1ccccc1 (stereo unspecified)	.	0.3%	i
CCOC(=O)c1cc2c(=O)n3ccccc3nc2n(Cc2ccccc2Cl)c1=N	0.37	103%	i
(listing goes on)
SMILES	WNV protease inh	Hsc70	MT1-MMP reporter
CCOC(=O)c1[nH]c2ccc(F)cc2c1NC(=O)CN1CCc2cc(OC)c(OC)cc2C1	-0.47	-4.8%	i
Cc1cc(C)c(NC(=O)CS(=O)CC(=O)N2CCN(c3ccccc3)CC2)c(C)c1 (stereo unspecified)	0.5	0.3%	i
COc1ccc(-c2ccc(CCC(=O)O)n2C(C)C)cc1	-0.32	-14%	i
O=S(=O)(c1ccccc1)N1CCSC1c1ccco1 (stereo unspecified)	0.92	0.8%	i
Cc1ccc(OC(=O)CCC(=O)N2CCc3ccccc32)cc1	-1.2	-1.7%	i
COc1ccc(N(CC(=O)Nc2cc(C)ccc2C)S(=O)(=O)c2c(C)nn(C)c2C)cc1	0.57	3.5%	i
CC(=O)N1c2ccccc2NC2=C(C(=O)CCC2)C1c1ccc(F)cc1 (stereo unspecified)	-0.08	4.7%	i
CC1=C(C(=O)Nc2ccccc2)C(c2cccnc2)n2nc(-c3cccnc3)nc2N1 (stereo unspecified)	-1	1.7%	i
COc1ccc(C2=Nn3c(nnc3-c3ccc(OC)cc3)SC2)cc1	-9.6*	-5.6%	i
O=S(=O)(/C=C/c1ccccc1)Nc1ccc(N2CCOCC2)cc1	0.85	-3.9%	i
CC1CN(c2nn3c(=O)c4ccccc4nc3c3ccccc23)CC(C)O1 (stereo unspecified)	-0.03	-2.0%	i

Compound activity deposited in PubChem by several laboratories.

A portion of the library; count on the stated rates, not on these rows.
